YopH PTP inh – inhibitors of Yersinia enterocolitica YopH tyrosine phosphatase. fluorescence Ex485/Em525. inhibition, %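 (about 10 µM by stock and volumes)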. actives 0.16% (n = 140,000). AID 898;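 active = inhibition of 50% or more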;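 also: controls were vehicle for no effect and minimum signal wells for full effect; inactives centre near -20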
Arbovirus anti – arbovirus infection inhibition; actives 0.37% (n = 200,000); inhibition, % at 10 µM; arbovirus infection cell-based antiviral screen; AID 1251;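 active = inhibition from about 30%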;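 also: bluetongue infection of BSR cells; cell survival read as ATP light after 72 h; 0% = infected wells without compound and 100% = uninfected wells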
Mtb growth – M. tuberculosis H37Rv growth inhibitors, H37Rv strain (AID 1626); M. tuberculosis H37Rv growth inhibition; higher % means a stronger effect; inhibition, % at 10 µM, or IC50 in µM where a hit was titrated; actives 0.95% (n = 220,000);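 active = confirmed in a dose series; inconclusive = inhibition above 80% but not taken into the dose series; inactive = below 80% or under 30% at every dose of the series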;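 also: bacteria incubated seven days before Alamar blue readout; 0% = bacteria only wells and 100% = bacteria with antibiotic wells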
RecA splice inh – inhibitors of M. tuberculosis RecA intein splicing | actives 0.75% (n = 290,000) | P9WHJ3 | inhibition, %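 (about 9 µM by stock and volumes)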 | AID 2221 | cell-free RecA intein splicing, fluorescence; in the data active = inhibition above about 30%; inconclusive = no clear call, values can overlap the other calls;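 also: 0% = vehicle wells and 100% = reference inhibitor control wells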
Target sequence (P9WHJ3 whole entry, looked up, canonical isoform): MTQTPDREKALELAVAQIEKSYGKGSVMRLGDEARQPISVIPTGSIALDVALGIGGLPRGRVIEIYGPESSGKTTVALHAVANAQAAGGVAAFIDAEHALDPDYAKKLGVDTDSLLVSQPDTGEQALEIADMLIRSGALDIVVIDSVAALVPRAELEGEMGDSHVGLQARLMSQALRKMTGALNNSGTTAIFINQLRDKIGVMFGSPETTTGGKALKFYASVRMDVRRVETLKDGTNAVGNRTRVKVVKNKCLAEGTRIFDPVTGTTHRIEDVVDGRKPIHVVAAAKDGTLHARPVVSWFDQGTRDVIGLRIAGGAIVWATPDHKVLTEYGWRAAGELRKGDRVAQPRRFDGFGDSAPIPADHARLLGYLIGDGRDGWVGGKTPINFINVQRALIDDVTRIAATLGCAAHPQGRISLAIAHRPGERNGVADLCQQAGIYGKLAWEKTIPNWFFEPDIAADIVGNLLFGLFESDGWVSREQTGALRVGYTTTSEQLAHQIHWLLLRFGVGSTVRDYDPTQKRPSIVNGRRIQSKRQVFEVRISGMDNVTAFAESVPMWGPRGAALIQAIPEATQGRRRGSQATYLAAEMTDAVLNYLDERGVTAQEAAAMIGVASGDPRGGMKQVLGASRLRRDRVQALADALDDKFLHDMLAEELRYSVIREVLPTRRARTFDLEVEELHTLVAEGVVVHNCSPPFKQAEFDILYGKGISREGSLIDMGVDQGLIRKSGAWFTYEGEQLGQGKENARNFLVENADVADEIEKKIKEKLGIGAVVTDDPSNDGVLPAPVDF
Mtb bLac sens – beta-lactam sensitization of Mtb H37Rv; M. tuberculosis H37Rv growth with meropenem, percent inhibition; hits of this screen are not shown here; AID 434955; inhibition, % at 25 µM; actives 0.27% (n = 330,000);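 active = about 74% or more and at least 40 points above the plate without the antibiotic, then above 30% in a dose series; inconclusive = first-round hits that could not be retested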;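 also: growth measured after seven days incubation then overnight dye step; 0% = bacteria only wells and 100% = bacteria with antibiotic; twin plates without the antibiotic show which effects depend on it; some results filed as inactive read as strong as hits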
Arbovirus anti repeat – second read-out of Arbovirus anti, no call of its own (marks repeat the call); inhibition, %; measured here: 10K subset replicate screen; many hits read low in the repeat;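 first of two repeat runs on a subset; 0% = infected and 100% = uninfected wells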
* hit, by the source's call; ? = inconclusive; . = not tested or not shown; & = joins results of further samples. Not all compounds are listed (hit frequency here may not be typical).

Preview:
SMILES	YopH PTP inh	Arbovirus anti	Mtb growth	RecA splice inh	Mtb bLac sens	others
COc1ccc(Cl)cc1NC(=O)CSc1nnc(COc2ccccc2)n1N	-24	6	-1%	1.6	1
Cc1ccc(N2C(=O)C3CC(c4ccccc4)=C4C5C=CC(C6C(=O)N(c7ccc(C)cc7C)C(=O)C56)C4C3C2=O)c(C)c1 (centres undefined)	-1	-1	36%	1.9	64
COc1ccc2c(=O)c(-c3cnn(-c4ccccc4)c3)c(C)oc2c1	-25	1	-2%	0.4	7
Cc1c(NC(=S)N/N=C/C=C/c2ccccc2)c(=O)n(-c2ccccc2)n1C	.	.	-9%	-1.8	8
COCCOC(=O)C1=C(C)NC2(O)c3ccccc3C(=O)C12O (centres undefined)	.	-3	-2%	12	-4
O=C(COC(=O)C1CC1)NC(=O)NCc1ccccc1	.	3	6%	0.8	48

The list itself, from the start:
SMILES	YopH PTP inh	Arbovirus anti	Mtb growth	RecA splice inh	Mtb bLac sens	others
COc1ccc(Cl)cc1NC(=O)CSc1nnc(COc2ccccc2)n1N	-24	6	-1%	1.6	1
Cc1ccc(N2C(=O)C3CC(c4ccccc4)=C4C5C=CC(C6C(=O)N(c7ccc(C)cc7C)C(=O)C56)C4C3C2=O)c(C)c1 (centres undefined)	-1	-1	36%	1.9	64
COc1ccc2c(=O)c(-c3cnn(-c4ccccc4)c3)c(C)oc2c1	-25	1	-2%	0.4	7
Cc1c(NC(=S)N/N=C/C=C/c2ccccc2)c(=O)n(-c2ccccc2)n1C	.	.	-9%	-1.8	8
COCCOC(=O)C1=C(C)NC2(O)c3ccccc3C(=O)C12O (centres undefined)	.	-3	-2%	12	-4
O=C(COC(=O)C1CC1)NC(=O)NCc1ccccc1	.	3	6%	0.8	48
COc1ccc(N=Cc2cc(Cc3ccccc3Cl)cc([N+](=O)[O-])c2O)cc1OC	.	15	0%	3.5	14
O=C(NNC1=C(C(=O)C(F)(F)F)CCC1)c1cccc(Cl)c1	-49	-39	30%	28	37
CCCCCC(=O)Nc1cc(S(=O)(=O)N2CCOCC2)ccc1N1CCN(C)CC1	.	.	.	-0.7	-28
Clc1ccc(-c2cnc(Oc3ccccc3)nc2)cc1	-51	-4	8%	1.2	4
CCCn1c2c(c(O)c(C(=O)Nc3nccs3)c1=O)CCCC2	-28	-5	4%	2.0	13
CCOC(=O)N/N=C/c1ccc(Oc2ccccc2)cc1	.	-15	14%	4.3	.
C/C(=N\OCC(=O)NC(C)C)c1cccs1	.	11	4%	-0.4	-6
COC(=O)N1CCN(c2ccc(C)cc2)C(C)C1 (centres undefined)	.	-2	0%	-3.6	-16
COCCCNC(=O)/C(C#N)=C/c1c(N2CCN(C)CC2)nc2c(C)cccn2c1=O	.	.	.	-50	-3
COCCCNC(=O)/C(C#N)=C/c1cc(C)[nH]c1C	.	-14	-5%	0.7	-3
CCOc1ccc(/C=C2\SC(N3CCCCC3)=NC2=O)cc1	.	.	.	4.6	5
CC(/C=N/n1c(-c2cc(C)[nH]n2)n[nH]c1=S)=C\c1ccccc1	5	8	-7%	5.0	-3
Cc1ccc(S(=O)(=O)N2CCCC2C(=O)Nn2cnnc2)cc1 (centres undefined)	-73	8	-1%	-1.9	-6
Cc1cc(C)n(CCNC(=O)CCc2nnc(CCc3ccccc3)o2)n1	.	2	2%	1.3	-6
O=C(CCCN1C(=O)/C(=C\c2cccs2)SC1=S)NNC(=O)c1cccnc1	.	-6	-6%	1.4	-1
C#Cc1ccc([C@H]2C=C(C(=O)N3CCN(Cc4ccccc4)CC3)O[C@@H](OCc3ccc(CO)cc3)C2)cc1	.	-6	10%	9.6	8
O=C(c1ccccc1)c1ccc(OC(=O)N2CCOCC2)cc1	-27	4	7%	2.0	4	Arbovirus anti repeat=2
CC(C)CNC(=O)NC(=O)COC(=O)c1ccccc1Sc1ccc(C(F)(F)F)cc1[N+](=O)[O-]	-5	-3	4%	-2.3	4
CCCCC(Sc1nc(N)c(NC(=O)c2ccco2)c(=O)[nH]1)C(=O)O (centres undefined)	.	.	.	0.0	?
Cn1ccnc1SCC(=O)NC1CCCCC1	-1	23	0%	0.4	-17	Arbovirus anti repeat=2
COCCCNC(=O)C(=O)Nc1ccc2c(c1)N(S(=O)(=O)c1cccs1)CCC2	.	.	.	0.1	0
N#Cc1c(C(F)(F)F)cc(Cc2ccccc2)nc1SCC(=O)NCC(=O)O	.	.	.	-1.9	-1
Cc1onc(-c2c(Cl)cccc2Cl)c1C(=O)NCCc1ccc(S(N)(=O)=O)cc1	-27	5	-2%	0.8	1
COc1ccccc1CC(=O)Nc1cccc(C(=O)NN2C(=O)c3ccccc3C2=O)c1	-29	-2	-5%	-6.5	3
Cc1ccc(-c2cc(=O)c3cc(Cl)ccc3[nH]2)cc1	.	2	.	1.0	3
O=C(Nc1nc(-c2ccc3ccccc3c2)cs1)c1ccc(N2C(=O)CCC2=O)cc1	-14	1	.	1.5	4
Cc1cnc(CNC(=O)C2CCC(=O)N(Cc3ccc(Cl)cc3)C2)[nH]1 (centres undefined)	.	.	.	-0.5	-4
CN1CCN(C(=O)/C=C\c2ccc(Cl)cc2)CC1	7	-10	6%	-2.4	-6
COc1ccccc1CNC(=O)C1CCN(S(=O)(=O)c2cccc([N+](=O)[O-])c2)CC1	.	.	.	-0.9	6
CCCCNC(=O)c1ccc2c(c1)ncn2C1CCCC1	2	-5	-6%	-1.4	-7
COc1ccc(CCNC(=O)C(=O)NCC2OCCN2S(=O)(=O)c2ccc(Cl)cc2)cc1 (centres undefined)	.	.	.	-8.2	-3
COc1ccccc1OCCCN1C(=O)C(=O)c2cccc(C)c21	.	-7	5%	-0.1	1
Cc1[nH]c2ccccc2c1Cc1nnc(SCc2ccccc2)o1	-16	-15	-3%	4.3	-1
CCC(C)NC(=O)c1oc2ccc(S(=O)(=O)N3CCC4(CC3)OCCO4)cc2c1C (centres undefined)	.	.	.	-0.7	-4
N#Cc1c(NC(=O)CN2C(=O)c3ccccc3C2=O)oc(-c2ccccc2)c1-c1ccccc1	-26	.	-4%	-0.6	3
Cc1ccc(S(=O)(=O)Nc2ccc3c(c2)nc2n3CCN(Cc3ccccc3)C2)cc1	12	0	-2%	19	51
COc1ccc(CCNc2nc(C)cc(C)n2)cc1OC	.	.	.	-3.0	1
O=C(CSc1ncnc2nc[nH]c12)Nc1ccc(Br)cc1Cl	.	.	-5%	-1.8	-2
CCN(CC)S(=O)(=O)c1cc(C(=O)Nc2cc(C)[nH]n2)ccc1Cl	.	.	.	2.1	1
Cc1cccc(NC(=O)CSc2nnc(-c3ccco3)o2)c1C	-11	2	-6%	3.2	-19
CCCNC(=S)Nc1ccc(Oc2ccccc2)cc1	-18	-11	2%	1.6	22
Cc1ccc(C)c(CSC2=NCCN2C(=O)c2cccs2)c1	.	2	-1%	0.6	-6
O=C1Nc2ccc(Cl)cc2[C@@](C#CC2CC2)(C(F)(F)F)O1	.	-22	8%&3%	11	-3
N#CCCn1cc(C(=O)Nc2ccc(C(=O)O)cc2)c(-c2cccc(Br)c2)n1	.	.	.	-1.2	-3
Cc1cc(NC(=O)CCC(=O)N(Cc2ccccc2)C2(C(=O)NC3CCCCC3)CCCC2)no1	.	-20	-2%	0.3	4
CCC(=C(c1ccc(OC)cc1)c1ccc(OC)cc1)c1cn(CC(O)CN(CCO)CCO)c2ccccc12 (centres undefined)	.	-33	12µM*	23	98
COc1ccccc1CCNC(=O)C(=O)Nc1cc2c3c(c1)CC(=O)N3CCC2	.	.	.	2.6	-5
CC(=O)Nc1ccc(S(=O)(=O)Nc2ccc(Cc3ccncc3)cc2)cc1	.	.	.	0.8	-13
CCC(CC)COC(=O)C1=C(C)NC(=O)NC1c1ccc(N(C)C)cc1 (centres undefined)	.	.	.	-2.0	1
Cc1ccc(C(=O)Nc2cccc(C(F)(F)F)c2)cc1Nc1cnccn1	.	.	-4%	2.5	-6
O=C(c1ccco1)N1CCN(C(c2ccc(F)cc2)c2nnnn2Cc2cccs2)CC1 (centres undefined)	-19	15	5%	1.1	-5
COc1cc2c(cc1NC(=O)CSc1ccc(C)cc1)oc1ccccc12	-31	0	76%	-0.1	23
COC(=NC(C)C)NC(C)C	.	.	-12%	1.0	-2
CC(=O)c1cccc(OCC(O)CNCC2COc3ccccc3O2)c1 (centres undefined)	.	.	.	-4.6	1

Additional results follow.
SMILES	YopH PTP inh	Arbovirus anti	Mtb growth	RecA splice inh	Mtb bLac sens	others
Fc1ccc(CSc2ccc(-c3ccco3)nn2)cc1	-20	-3	-6%	2.1	4
Cc1ccc(C(=O)N2CCC(N3CCC(C(=O)N4CCOCC4)CC3)CC2)cc1C	.	.	.	0.1	-18
COc1ccccc1NC(=O)c1ccc(S(=O)(=O)N(C)C)cc1	-52	-2	-7%	-0.2	-5	Arbovirus anti repeat=-1
Cc1ccc(N(NC(=O)C(O)(c2ccccc2)c2ccccc2)C(=O)CCl)cc1	-31	-29	?	66*	98
O=C(Oc1ccccc1-c1nnco1)c1ccc(Cl)cc1	0	-1	8%	5.6	100
CCc1ccc(C(=O)CSc2n[nH]c(-c3ccncc3)n2)cc1	-14	21	3%	0.2	3
O=C(NCc1cc([N+](=O)[O-])ccc1O)c1cccc(NS(=O)(=O)c2ccccc2)c1	.	.	.	4.1	-4
Cc1[nH]c2ccccc2c1SCC(=O)O	-12	-4	-15%	-0.9	-8
Cc1ccc(/C=N/NC(=O)c2cccc(S(=O)(=O)Nc3ccccc3Cl)c2)s1	-7	5	0%	0.3	2
CCc1cc(C(=O)N2CCCC(CCC(=O)N3CCN(c4ccccn4)CC3)C2)no1 (centres undefined)	.	1	4%	-0.3	-7
Cc1ccnc(-n2c(C)cc(/C=C3\C(=O)NC(=S)N(C)C3=O)c2C)c1	-10	-1	0%	-5.8	?
Cc1ccc(/C=N/NC(=S)Nc2cccc(S(=O)(=O)N(C)C)c2)o1	.	.	-5%	0.9	-5
CC1CC(C)(C)N(C(=O)CN2CCN(C)CC2)c2ccccc21 (centres undefined)	.	.	.	-4.9	16
CCC(Oc1ccccc1)C(=O)Nc1ccccn1 (centres undefined)	-28	-6	-5%	0.0	-6
COc1ccc(NC(=O)NCCCN2CCc3ccccc3C2)cc1	-14	-5	-2%	-1.0	-3	Arbovirus anti repeat=1
COc1ccc(NC(=O)CCCc2ccccc2)c(OC)c1	.	.	.	3.6	3
COc1ccccc1N1CCN(C(c2cccs2)C(C)NC(=O)C(=O)N2CCCCC2)CC1 (centres undefined)	.	.	.	0.9	3
Cc1cc(C(=O)Nc2ccc(S(=O)(=O)N3CCCC3)cc2)no1	.	9	7%	-0.6	-8
Nc1ccc(S(=O)(=O)NC2(C(F)(F)F)NC(=O)N(c3ccccc3F)C2=O)cc1 (centres undefined)	.	.	.	-4.6	-3
CCOC(=O)C1CCN(C(=O)Nc2cccc(Cl)c2)CC1	35	-1	0%	3.3	3
Cc1[nH]n(-c2ccccc2)c(=O)c1/C=C1\C=NN=C1c1ccccc1	.	.	-5%	82*	-5
COc1ccc2cc(Br)ccc2c1CC(=O)NC1CC(C)(C)NC(C)(C)C1	-15	-29	-3%	1.9	-1
Cc1cccnc1CCNCc1c(C(=O)N2C[C@@H](C)O[C@@H](C)C2)nc2ccc(Cl)cn12	.	.	.	17	0
O=C(NC1CCCN(Cc2ccc(Cl)cc2)C1)c1cccc(F)c1 (centres undefined)	.	.	.	0.1	-3
Fc1cccc(CCN2CCNC[C@H]2Cc2cccc3ccccc23)c1	.	.	.	11	68
COc1ccc(CN2CCN(CCCc3ccccc3)C(CCO)C2)c(OC)c1 (centres undefined)	.	.	.	3.4	2
CCCNC(=O)c1cc(Cl)c(NC(=O)C2=CSCCO2)cc1OC	.	.	.	0.5	45
CC(=O)Cn1c(N2CCC(Cc3ccccc3)CC2)nc2c1c(=O)[nH]c(=O)n2C	-38	-5	1%	3.5	2
COC(=O)c1ccc(Cl)c(NC(=O)CN(c2ccc(OC)c(OC)c2)S(C)(=O)=O)c1	-15	10	5%	-1.3	8
CSc1ccccc1NC(=O)c1cc2ncc(Br)cn2n1	.	-4	4%	0.0	-8
O=C(NCc1ccccc1)c1ccc2ccccc2n1	.	.	.	2.6	-2
CCN(CC)C(=O)CN1C(=O)c2cccc3cccc1c23	.	.	.	-20	-5
CC(C)(C)c1nnc(NC(=O)Nc2ccc(Cl)cc2)s1	.	.	2%	-1.2	-2
COC(=O)C1=C(C)N(CC2CC2)C(=NCCN2CCOCC2)N[C@H]1c1ccccc1	.	.	.	0.4	-13
O=C(NCCCn1ccnc1)c1cnn2c1NC(c1ccccc1)CC2C(F)(F)F (centres undefined)	-13	1	2%	-0.9	-3
Cc1ccc(-n2[nH]c(C)c(/C=N/NC(=O)c3cccc([N+](=O)[O-])c3)c2=O)cc1C	-51	-31	70%	12	48

Screens deposited in PubChem BioAssay by several laboratories.
